Beta2AR agonist: activates human beta-2 adrenergic receptor causing internalization. actives 0.43% (n = 340,000). response, % (concentration not given with the values). P07550. AID 504454. Am2.2-beta2AR cells, FAP receptor internalization, flow cytometry; reference of the scale not given here;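 active means response above a set limit, near 3 SD of response in nonfluorescent compounds, cut at about 42% in these data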;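 further: stock transfer was 100 nL into about 11 µL; a reference agonist was the positive control; negative values mostly stem from fluorescent compounds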
HNF4A DNA FP: change in binding of human HNF4 alpha to DNA; actives 0.3% (n = 360,000); AID 1224865; activity change, % at 10 µM; HNF4a-FITC DNA binding, fluorescence polarization, 1 h; in the data active means activity change above about 30%, passing the limit was not always enough;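 further: controls were the assay level and a saturating level of protein; the project sought stronger binding though the title names inhibitors; some compounds called inactive have numbers as strong as hits; positive values seem to mean higher polarization but the record does not say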
Target sequence (P41235 whole entry, looked up): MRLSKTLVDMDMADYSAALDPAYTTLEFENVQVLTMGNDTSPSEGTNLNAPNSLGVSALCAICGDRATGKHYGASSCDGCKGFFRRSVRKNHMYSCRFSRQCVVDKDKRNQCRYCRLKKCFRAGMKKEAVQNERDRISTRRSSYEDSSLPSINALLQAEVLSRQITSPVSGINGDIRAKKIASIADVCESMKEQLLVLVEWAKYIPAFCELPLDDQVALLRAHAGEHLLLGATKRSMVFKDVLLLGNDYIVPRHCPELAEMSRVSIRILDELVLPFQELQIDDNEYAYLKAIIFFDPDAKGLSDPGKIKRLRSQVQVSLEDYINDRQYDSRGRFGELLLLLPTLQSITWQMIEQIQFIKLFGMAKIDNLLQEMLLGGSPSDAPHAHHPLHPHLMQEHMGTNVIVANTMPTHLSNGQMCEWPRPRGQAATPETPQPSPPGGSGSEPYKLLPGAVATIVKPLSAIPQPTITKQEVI
FGF22 binding: binders of recombinant human FGF22 by thermal shift; actives 1.5% (n = 340,000); AID 651658; SYPRO orange fluorescence; percent of sucrose octasulfate shift, DMSO zero; calls only at 9.99 µM; Q9HCT0;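 active means melting point raised past a set limit in the mean and every replicate; three in four hits are not shown here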
Target sequence (Q9HCT0 whole entry, looked up): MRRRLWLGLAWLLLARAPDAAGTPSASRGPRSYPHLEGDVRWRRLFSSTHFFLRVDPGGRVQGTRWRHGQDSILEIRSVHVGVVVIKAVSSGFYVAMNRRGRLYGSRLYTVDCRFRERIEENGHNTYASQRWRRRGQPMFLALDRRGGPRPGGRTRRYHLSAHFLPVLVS
ALR inh: human ALR oxidase inhibition via reduced H2O2; P55789; purified ALR, DTT oxidation, H2O2 HRP-luminol luminescence; inhibition, % (test concentration not listed); actives 3.8% (n = 290,000); AID 485317;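 active means mean and each replicate at 75% or more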;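 further: stock transfer was 7.5 nL into about 7.5 µL; 0% = neutral wells and 100% = wells with inactivated enzyme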
UCH37 inh: human UCH37 deubiquitinating enzyme inhibition. actives 0.33% (n = 330,000). AID 588478. purified proteasome/UCH37, Ub-AMC cleavage fluorescence. Q9Y5K5. inhibition, % (test concentration not listed);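 active means mean of two replicates above 20%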;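 further: 0% = compound-free wells with enzyme and 100% = wells lacking proteasome; stock transfer was 100 nL into about 20 µL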
Target sequence (Q9Y5K5 whole entry, looked up): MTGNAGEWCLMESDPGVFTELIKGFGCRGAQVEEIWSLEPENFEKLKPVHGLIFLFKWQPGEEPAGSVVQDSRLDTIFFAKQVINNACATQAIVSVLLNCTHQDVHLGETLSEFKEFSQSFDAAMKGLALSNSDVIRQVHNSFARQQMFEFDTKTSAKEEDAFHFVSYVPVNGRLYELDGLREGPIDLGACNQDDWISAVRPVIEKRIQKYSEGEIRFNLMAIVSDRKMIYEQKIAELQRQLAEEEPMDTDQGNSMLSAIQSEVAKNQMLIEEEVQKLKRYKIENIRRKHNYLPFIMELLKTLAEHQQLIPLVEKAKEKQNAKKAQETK
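Material: human UCH37 enzyme supplied as purified proteasome complex. Measure: % inhibition of Ub-AMC cleavage fluorescence. Medium: pH 7.4 Tris-HCl (50 mM) with ovalbumin, ATP-MgCl2, DTT. Times: 30 min preincubation with enzyme, 25 min cleavage at room temperature. Detection: AMC fluorescence intensity at 355/460 nm.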
Ecoli growth: inhibitors of Escherichia coli growth; OD600, 23 h; active compounds read low; OD600 absorbance (concentration not given with the values); actives 0.21% (n = 330,000); AID 1053175;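 active means OD600 absorbance below the run mean of sample wells minus 3.6 SD, in any replicate, cut at about 0.56 in these data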;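 further: stock transfer was 300 nL into about 60 µL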
LANA-H2B inh: blocks KSHV LANA binding to histone H2A/H2B | Q9QR71 | inhibition, % (concentration not given with the values) | cell-free LANA-H2A/H2B peptide, fluorescence polarization | actives 0.6% (n = 320,000); in the data active means inhibition mostly above about 10%, no sharp cut-off; inactive means mostly below about 6.7%;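 further: stock transfer was 7.5 nL into about 10 µL; 0% = median of vehicle wells and 100% = median of positive control wells; one replicate is shown; the record names a cut of 25% in any replicate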
An asterisk follows results filed as active; i = inactive; / = no result given; + = active, no number.

SMILES	Beta2AR agonist	HNF4A DNA FP	FGF22 binding	ALR inh	UCH37 inh	Ecoli growth	LANA-H2B inh
CC(=O)Nc1ccc(SC[C@H](Cc2ccccc2)N2CC[C@@H](C(C)(C)C)CCC2=O)cc1	19	0.7	i	99*	0.1	/	0.8
COC(=O)C(Cc1ccccc1)NS(=O)(=O)c1ccccc1Br (centres undefined)	1	-1.2	/	-2	6.1	0.7	1.3
O=C(CN1CCN(c2ccccn2)CC1)Nc1ccc(F)cc1	0	3.7	/	6	0.2	0.7	4.2
CCOc1ccccc1N1CC(C(=O)N2CCc3ccccc32)CC1=O (centres undefined)	-7	-2.1	/	-1	1.3	0.77	-1.2
Cc1cc(OCCN2CCOCC2)ccc1C(C)C	3	1.3	i	0	4.9	0.64	-4.2
CCOC(=O)c1cnc(N2CCN(c3ccccc3)CC2)[nH]c1=O	24	-2.2	i	/	3.0	0.65	/
Cc1cccc(C(=O)NCCCN(C)CCCNC(=O)c2cccc(C)c2)c1	4	1.9	i	-2	2.2	0.68	-2.0
CCCCN1C(=O)C(=O)N(CC(=O)c2ccc3c(c2)OCO3)C1=O	0	2.1	i	0	0.3	0.64	1.5
CCOc1ccc(S(=O)(=O)NCCC(=O)NCC2(N3CCCCC3)CCCCC2)cc1	-4	4.3	i	3	2.8	0.72	168*
CC(=O)Oc1ccc(/C=c2\sc3ncnn3c2=O)cc1	-3	-2.1	/	25	/	/	-0.2
S=c1[nH]nc(-c2ccc(Cl)cc2)n1/N=C/c1cccs1	6	-4.8	i	6	/	/	3.5
COC(=O)c1cc(N=Nc2sc(N)nc2C)cc(C(=O)OC)c1	38	5.2	i	/	6.0	0.68	1.5
O=C(Oc1ccc(/C=N/n2cnnc2)cc1)c1cccc([N+](=O)[O-])c1	1	4.0	/	-6	/	/	-3.7
CCN1C(=O)[C@@H]2Cc3c([nH]c4ccccc34)C(c3cc(OC)c(OC)c(OC)c3)N2C1=S (some centres undefined)	-30	26	i	-17	0.5	0.69	-3.5
CCn1c(SCC(=O)Nc2cccc(OC)c2)nc2ccccc2c1=O	1	2.7	i	-14	2.4	0.71	4.3
COc1ccc(CCN(C)C(=O)c2oc3ccccc3c2C)cc1OC	-6	1.5	i	/	4.8	0.69	0.3
COCCN(C(=O)COC(=O)CCn1c(C)csc1=O)c1c(N)n(Cc2ccccc2)c(=O)[nH]c1=O	1	0.0	i	-7	0.3	0.6	2.1
CCCC(=O)c1ccc2c(c1)OCCO2	-16	-2.6	/	5	-1.6	0.69	0.5
Cc1ccc(OCC(=O)NCCCNC(=O)c2ccco2)cc1C	-1	5.5	i	-5	-0.6	0.7	-3.4
CCOc1cc(C=O)ccc1OCCSc1ccc(Cl)cc1	3	-0.4	/	-4	5.0	0.66	-3.5
O=C(O)CSc1c2c(nc3cc(C(=O)NCCN4CCOCC4)ccc13)CCC2	/	/	i	-9	1.8	0.63	0.1
COc1cc(C(=O)Nc2cccc3ncccc23)cc(OC)c1OC	-4	-0.6	/	/	-0.8	0.78	4.3
CC1CCCC(C)N1C(=O)COC(=O)c1ccc(Br)c(S(=O)(=O)N2CCOCC2)c1 (centres undefined)	0	0.4	i	-3	-2.5	0.72	0.2
CCCCc1nc(S(=O)(=O)c2ccc(Cl)cc2)c(N2CCOCC2)o1	3	2.8	/	13	5.5	0.69	-2.6
Cc1ccc(C)c(NC(=O)C2CC(=O)N(C3CCCCC3)C2)c1 (centres undefined)	1	0.1	i	-3	0.1	0.66	0.2

Two successive compounds from above:
SMILES	Beta2AR agonist	HNF4A DNA FP	FGF22 binding	ALR inh	UCH37 inh	Ecoli growth	LANA-H2B inh
CC1CCCC(C)N1C(=O)COC(=O)c1ccc(Br)c(S(=O)(=O)N2CCOCC2)c1 (centres undefined)	0	0.4	i	-3	-2.5	0.72	0.2
CCCCc1nc(S(=O)(=O)c2ccc(Cl)cc2)c(N2CCOCC2)o1	3	2.8	/	13	5.5	0.69	-2.6

New compounds follow:
SMILES	Beta2AR agonist	HNF4A DNA FP	FGF22 binding	ALR inh	UCH37 inh	Ecoli growth	LANA-H2B inh
COc1ccccc1NC(=O)COC(=O)c1ccccc1C(=O)N1CCN(c2ccccc2)CC1	1	-0.2	i	/	0.9	0.71	2.1
O=C(O)[C@]1(S(=O)(=O)c2ccccc2)C[C@@H]2ON=C(c3cccc(Br)c3)[C@@H]2C1	1	0.1	i	0	1.6	/	2.0
Cc1c(S(=O)(=O)N2CCN(c3cccc(C(F)(F)F)c3)CC2)c(=O)n(C)c(=O)n1C	2	4.8	i	/	4.0	0.79	-5.5
Cc1ccc(N(C(=O)C2CCC(=O)N2)C2(C(=O)NC3CCCC3)CCCCC2)cc1 (centres undefined)	-6	-2.5	/	-19	2.0	0.72	-0.5
CCC(C(=O)OC)n1cnc2c(nnn2-c2ccc(F)cc2)c1=O (centres undefined)	3	1.6	i	1	2.1	0.72	2.6
CCOC(=O)c1c(NC(=O)COC(=O)c2nc(Cl)ccc2Cl)sc2c1CCC2	-5	1.2	i	-6	-6.3	0.73	2.2
O=C(OCC12CC3CC(CC(C3)C1)C2)c1ccc(NCc2cc(O)ccc2O)cc1	17	1.2	i	/	/	/	/
C#Cc1ccc([C@H]2C=C(C(=O)N3CCOCC3)O[C@@H](OCC)[C@@H]2CCCO)cc1	-4	-3.1	i	/	0.0	/	0.5
CC[C@H](C)[C@H](NC(=O)c1ccccc1)C(=O)Nc1ccc(S(=O)(=O)Nc2cc(C)nc(C)n2)cc1	2	2.8	i	2	1.0	0.66	-1.2
COc1ccc(NC(=O)CSc2nnc(Cc3cccs3)n2-c2ccc(C)cc2)cc1	-15	-2.4	i	-9	1.2	0.65	5.2
CCN(CC)c1ccc(C(=O)NC(=S)N2CCN(Cc3ccc4c(c3)OCO4)CC2)cc1	-5	2.7	i	3	-3.3	0.74	-1.6
O=[N+]([O-])c1cccc(-c2nnc(-c3ccc4c(c3)OCO4)o2)c1	-9	2.4	i	6	0.9	0.65	0.0
Cc1ccccc1-n1c(SCC(=O)NCC2CCCO2)nnc1-c1ccncc1 (centres undefined)	1	-0.5	i	-12	2.2	0.69	-0.9
COc1ccc(C(=O)NNC(=O)CN2CCN(c3nc(-c4ccccc4)cs3)CC2)cc1	1	1.0	i	-15	0.2	0.71	-1.5
CSc1cccc(NC(=O)CN(c2ccc(C)cc2C)S(C)(=O)=O)c1	2	-5.2	/	-6	13	0.66	4.0
Cc1ccc(Cl)cc1NC(=O)C(NS(=O)(=O)c1cccs1)c1ccccc1 (centres undefined)	-1	4.2	i	/	1.3	0.74	-4.0
O=S(=O)(ON(c1ccccc1)S(=O)(=O)c1ccccc1)c1ccccc1	11	-3.2	+	-14	1.9	0.67	2.1
Cc1nn(Cc2cccc(C(=O)NC34CC5CC(CC(C5)C3)C4)c2)c(C)c1Br	5	1.3	/	/	0.4	0.68	-0.9
Oc1ccc2oc3c(c2c1)CCCC3	-5	-0.1	/	9	3.3	0.66	-5.1
COc1ccc(C(C(=O)NC2CCCC2)N(Cc2cccnc2)C(=O)c2snc(C(N)=O)c2N)cc1OC (centres undefined)	3	0.4	/	/	/	/	-0.2
O=C(NC(=S)N1CCOCC1)c1cn(-c2ccccc2)nc1-c1ccccc1	-8	-1.5	i	13	2.4	0.66	8.9
CCOC(=O)c1ccc(NC(=O)CN2C(=O)CSC2=O)cc1	2	3.7	/	100*	1.7	0.7	4.3
O=S(=O)(c1ccccc1)N(Cc1nc(-c2ccccc2)no1)C1CCCCC1	-7	-0.9	/	-3	5.7	0.8	0.2
COC(c1ccccc1)c1nnc(CCC(=O)N(C)CCCC2CCCC2)o1 (centres undefined)	-2	0.3	i	-7	6.7	0.72	-0.8
CC1=CC(=C(C#N)c2nc3ccccc3s2)C=C(C)N1Cc1ccco1	4	15	i	1	-1.1	0.72	0.4
More structures.
SMILES	Beta2AR agonist	HNF4A DNA FP	FGF22 binding	ALR inh	UCH37 inh	Ecoli growth	LANA-H2B inh
O=C(NCCOc1ccc(F)cc1)C1CCC(=O)N(CCN2CCOCC2)C1 (centres undefined)	8	-0.8	i	-2	-0.8	0.7	-2.7
Cc1ccc(C)c(N2C(=O)c3cc(N4CCOCC4)c([N+](=O)[O-])cc3C2=O)c1	2	1.3	i	-14	4.4	0.65	-3.4
CC(C)=CCC/C(C)=C/Cc1c(O)ccc(C(=O)/C=C/c2ccc(O)cc2)c1O	13	1.1	i	/	/	/	9.2
Cc1ccc(NS(=O)(=O)c2ccc(CCC(=O)N3CCCC3)cc2)cc1	-2	-1.2	i	-17	1.0	0.71	-3.2
O=C(O)C1CCCN1C(=O)C12CC3CC(CC(C3)C1)C2 (centres undefined)	-5	-4.7	i	-10	2.1	0.72	1.9
CCn1c(-c2ccco2)n[nH]c1=S	0	1.9	/	73	1.6	0.71	-1.9
O=C1[C@@H]2C(c3ccccc3Cl)=NO[C@@H]2C(=O)N1Cc1ccccc1	-4	2.8	/	-3	2.9	0.76	0.1
CCCn1nc(Oc2nc(NCC)nc(NCC)n2)ccc1=O	8	-0.6	/	0	4.0	0.66	-0.8
COc1ccc(S(=O)(=O)N/N=C(/C)c2ccc(Cl)cc2)cc1	3	4.9	i	17	/	/	-5.3
CCOc1ccccc1N(CC(=O)NC1CCCCC1)S(C)(=O)=O	15	-3.6	/	/	3.2	0.68	-2.7
C=CCn1c(SCC(=O)Nc2c(C)n(C)n(-c3ccccc3)c2=O)nc2sc(C)c(C)c2c1=O	-20	-0.2	/	0	2.1	0.71	-5.6
Cc1cc(F)ccc1S(=O)(=O)NCC(c1ccc2c(c1)OCO2)N1CCOCC1 (centres undefined)	3	-2.4	i	-3	1.9	0.67	-4.6
CC(=O)Nc1cccc(NC(C)=C(C#N)C#N)c1	-3	-3.4	/	-3	1.5	0.69	0.9
CCSc1nnc(NC(NC(C)=O)(C(F)(F)F)C(F)(F)F)s1	-1	-2.5	i	-3	4.7	0.67	0.9
O=C(O)c1ccc2c(=O)n(-c3ccc(F)c(Cl)c3)c(=S)[nH]c2c1	-8	2.7	/	58	-9.6	0.67	0.0
NS(=O)(=O)c1ccc(CCNC(=O)C2COc3ccccc3O2)cc1 (centres undefined)	-4	2.3	i	-4	5.2	0.68	-3.8
Cc1ccc(SCC(=O)NCC(C)C)cc1	-3	1.1	/	-9	6.3	0.74	-3.5
Oc1cccc2cc3cccc(O)c3c(O)c12	-17	-41	/	-10	/	/	2.0
CCOC(=O)c1[nH]c2ccc(F)cc2c1NC(=O)c1cc(OC)c(OC)c(OC)c1	5	0.1	/	-4	0.4	0.75	5.6
CS(=O)(=O)Nc1ccccc1C(=O)Nc1cccc(Cl)c1	4	1.8	i	1	-9.3	0.66	-2.8
NS(=O)(=O)c1ccccc1NC(=S)Nc1ccccc1S(N)(=O)=O	-4	-0.8	i	-5	2.9	0.68	-0.8
CCCCCC1CCC(C(=O)NCCN2CCOCC2)CC1 (centres undefined)	-1	-0.1	i	-3	3.8	0.69	3.2
O=C(c1ccc2c(=O)n3c(nc2c1)CCCCC3)N1CCN(C(c2ccccc2)c2ccccc2)CC1	10	-3.7	/	-3	4.7	0.78	7.5
COc1ccc2ccccc2c1/C=N/NC(=O)CC1(C)OCCCO1	2	-1.2	i	-11	/	/	0.6
O=C(C[n+]1cc(Br)cc2ccccc21)c1ccc(F)cc1	-45	9.8	i	-6	-5.0	0.66	2.1
C[C@H](N)c1nnc(SCC(=O)c2ccc(Cl)cc2)o1	3	0.8	/	/	-0.1	0.69	/
C(=N\N=C\c1ccncc1)/c1ccncc1	-8	-1.5	i	7	/	/	-1.5
Cn1c(COc2ccccc2)nnc1SCC(=O)Nc1ccc(N2CCOCC2)c(Cl)c1	2	1.1	/	/	-1.2	0.75	0.5

An excerpt from above with just Ecoli growth and ALR inh.
compound	Ecoli growth	ALR inh
O=C1[C@@H]2C(c3ccccc3Cl)=NO[C@@H]2C(=O)N1Cc1ccccc1	0.76	-3
COc1ccc2ccccc2c1/C=N/NC(=O)CC1(C)OCCCO1	/	-11
O=C(c1ccc2c(=O)n3c(nc2c1)CCCCC3)N1CCN(C(c2ccccc2)c2ccccc2)CC1	0.78	-3

Screening results (PubChem)

Not all compounds are listed; count on the stated rates, not on these rows.
